Bioassay records (PubChem)
miR-21 reporter = qHTS Assay for Modulators of miRNAs and/orActivators of miR-21. HeLa miR-21 FLuc reporter, luciferase, 48 h. Potency, µM (titrated, usually from 38.3 µM), inactives show top-dose reporter change, positive = more light. 340,000 tested, under 10 active. AID 2288, 2010; active = well fitted rising curve with a large enough effect; inconclusive = small, poorly fitted or top-dose-only effect; inactive = no such curve, though single readings can be large or run the other way;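 further: % of control where 0% means no effect; miR-21 action dims this reporter so a rising signal means less miR-21 action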
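HeLa cells endogenously expressing miR-21, stably carrying CMV-driven firefly luciferase with a downstream miR-21 binding site, 2000 cells/well. Titrations up to approximately 40 uM, 48 hours; luciferase luminescence read.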
* hit, by the source's call. A portion of the library. The share of hits here may be higher or lower than overall.

`CCOC(=O)c1c(NC(=O)COc2ccc(F)cc2)sc2c1CCC(C)C2` (stereo unspecified) gave miR-21 reporter -2%.
Screening COc1cccc(N2CCN(C(=O)c3nc(-c4ccc(Cl)cc4)n4c3CCCCC4)CC2)c1 returned miR-21 reporter inconclusive.
For COc1ccc2c(CNCc3ccco3)c(C(=O)O)n(Cc3ccccc3)c2c1 the results were miR-21 reporter -9%.
O=C(Cn1c(-c2cccs2)cc2cc(F)ccc21)NCCc1ccc(Cl)cc1 was read as miR-21 reporter -1%.
Screening CCN(c1cc(C)cc(C)c1)S(=O)(=O)c1nnc(NC(=O)c2ccccc2C)s1 returned miR-21 reporter 9%.
`CCOc1ccc(S(=O)(=O)Nc2ccc3oc(C)c(C(=O)OC(C)C)c3c2)cc1` gave miR-21 reporter 22%.
For Cc1cc(C)c2oc(-c3cccc(NC(=O)c4cc5ccccc5o4)c3)nc2c1 the results were miR-21 reporter -8%.
For Cc1ccc(NC(=O)c2cc3c(=O)[nH]c4ccccc4c3n2C)cc1F the results were miR-21 reporter -10%.
Screening CCc1ccc(CNC(=O)c2ccc3c(c2)nc2n3CCCCC2)cc1 returned miR-21 reporter -51%.
Screening O=C(NCc1ccccc1)c1ccc2c(c1)CCN2S(=O)(=O)c1ccccc1 returned miR-21 reporter -3%.
CCOC(=O)c1cccc(NC(=O)C2=C(C)C(=O)OC23CCCCC3)c1 was read as miR-21 reporter 7%.
`CCC(C(=O)Nc1cc(C)ccc1OC)n1nnc(C(=O)OC)c1C(=O)OC` (stereo unspecified) gave miR-21 reporter 4%.
COc1ccc(CNC(=O)c2ccc(-c3nc(CSc4ccc(C)cc4)c(C)o3)cc2)cc1OC was read as miR-21 reporter -1%.
Screening CCOc1ccc(OCC)c(Nc2nc3ccc(C(=O)c4ccccc4)cc3n3cnnc23)c1 returned miR-21 reporter -3%.
`Cc1ccc(S(=O)(=O)c2nc(S(=O)(=O)c3ccc(C)cc3)c(NCCCOC(C)C)s2)cc1` gave miR-21 reporter 2%.
For Cc1ccc(-n2c(=O)c3ccc(C(=O)NCc4ccco4)cc3n(Cc3ccccc3Cl)c2=O)cc1 the results were miR-21 reporter -3%.
Screening Cc1ccc(-c2nnc(SCC(=O)NC(C)(C)C)nc2-c2ccc(C)cc2)cc1 returned miR-21 reporter 1%.
For COc1ccc(CN(C(=O)Cc2coc3ccc(C)cc23)C2CCS(=O)(=O)C2)cc1 (stereo unspecified) the results were miR-21 reporter -4%.
Screening CCc1nc(C)cn1S(=O)(=O)c1ccc(Cl)c(Cl)c1OC returned miR-21 reporter 16%.
`Cc1cccc(C)c1NC(=O)CN1C(=O)c2ccccc2Sc2ncccc21` gave miR-21 reporter -3%.
For CCOc1ccc(C(=O)NCc2nc(-c3ccc(Cl)cc3)no2)cc1OCC the results were miR-21 reporter -1%.
Screening Cc1cccc(CCn2c(=O)c3ccccc3n(Cc3cccc(F)c3)c2=O)c1 returned miR-21 reporter -17%.
`Cc1ccc(C(=O)N2CCCCC2)cc1NC(=O)c1nsc2ccccc12` gave miR-21 reporter 1%.
For O=C(COc1ccccc1Cl)OCc1cc(=O)n2nc(-c3cccs3)sc2n1 the results were miR-21 reporter -12%.

Three consecutive compounds out of the list so far:
COc1ccc(CNC(=O)c2ccc(-c3nc(CSc4ccc(C)cc4)c(C)o3)cc2)cc1OC was read as miR-21 reporter -1%.
Screening CCOc1ccc(OCC)c(Nc2nc3ccc(C(=O)c4ccccc4)cc3n3cnnc23)c1 returned miR-21 reporter -3%.
`Cc1ccc(S(=O)(=O)c2nc(S(=O)(=O)c3ccc(C)cc3)c(NCCCOC(C)C)s2)cc1` gave miR-21 reporter 2%.

Remaining list, next part
`O=C(NC1CCCC1)c1ccc(CSc2nc3ccncc3n2Cc2cccc(F)c2)cc1` gave miR-21 reporter 3%.
For COc1ccc(CNCc2c(C(=O)O)c(C)n(Cc3ccccc3C)c2C)c(OC)c1 the results were miR-21 reporter 0%.
For Cc1cc(C)n(-c2nnc(Nc3ccc(C(C)C)cc3)c3ccccc23)n1 the results were miR-21 reporter 1%.
Screening O=C1CC(c2ccc(Cl)cc2)c2cc3c(cc2N1)OCCO3 (stereo unspecified) returned miR-21 reporter 9%.
`COc1ccc(-c2cc(C(F)(F)F)nc(SCC(=O)Nc3ccc(C(C)=O)cc3)n2)cc1` gave miR-21 reporter -9%.
CCCNC(=O)c1ccc(Cn2c(SCC(=O)NC(C)C)nc3ccccc3c2=O)cc1 was read as miR-21 reporter -2%.
For CCc1ccccc1NC(=O)Cn1nnc(C(=O)NCc2ccccc2Cl)c1N the results were miR-21 reporter -8%.
COc1ccc(-n2c3c(c(=O)[nH]c2=O)C(NC(=O)c2ccccc2Cl)(C(F)(F)F)C(=O)N3)cc1 (stereo unspecified) was read as miR-21 reporter -3%.
`COc1ccc(NC(=O)CSc2nc(-c3ccccc3)c3ccccc3n2)cc1` gave miR-21 reporter -2%.
`Cc1ccc(CNC(=O)c2ccc(Cn3c(=O)c4ccccc4n(CC(=O)Nc4ccc(C)cc4)c3=O)cc2)cc1` gave miR-21 reporter -5%.
Screening CCOC(=O)c1ccc(NC(=O)c2nc(SC(C)C)ncc2Cl)cc1 returned miR-21 reporter -3%.
`O=C(Cn1cnc2onc(-c3ccc(F)cc3)c2c1=O)Nc1ccc(F)c(Cl)c1` gave miR-21 reporter 4%.

Random excerpt: 6 compounds from above.
`O=C(Cn1cnc2onc(-c3ccc(F)cc3)c2c1=O)Nc1ccc(F)c(Cl)c1` gave miR-21 reporter 4%.
For Cc1cc(C)n(-c2nnc(Nc3ccc(C(C)C)cc3)c3ccccc23)n1 the results were miR-21 reporter 1%.
CCCNC(=O)c1ccc(Cn2c(SCC(=O)NC(C)C)nc3ccccc3c2=O)cc1 was read as miR-21 reporter -2%.
`Cc1ccc(CNC(=O)c2ccc(Cn3c(=O)c4ccccc4n(CC(=O)Nc4ccc(C)cc4)c3=O)cc2)cc1` gave miR-21 reporter -5%.
Screening O=C1CC(c2ccc(Cl)cc2)c2cc3c(cc2N1)OCCO3 (stereo unspecified) returned miR-21 reporter 9%.
For COc1ccc(CNCc2c(C(=O)O)c(C)n(Cc3ccccc3C)c2C)c(OC)c1 the results were miR-21 reporter 0%.

(continued)
`COc1ccc(S(=O)(=O)Nc2ccc(-c3cn4ccsc4n3)cc2)cc1C` gave miR-21 reporter -8%.
`COCCCNc1ncnc2c1c(-c1ccccc1)cn2-c1ccc(C)c(Cl)c1` gave miR-21 reporter -1%.
CCSc1ncc(Cl)c(C(=O)Nc2c(C(=O)c3ccc(C)c(F)c3)oc3ccccc23)n1 was read as miR-21 reporter -7%.
For Cc1ccc(OCC(=O)Nc2ccc3[nH]c(=O)sc3c2)cc1 the results were miR-21 reporter 0%.
`Cc1ccc(Cl)cc1NC(=O)CCS(=O)(=O)c1ccc2c(c1)n(C)c(=O)c(=O)n2C` gave miR-21 reporter -1%.
For Cc1c(C(=O)NCc2ccc(Cl)cc2)sc2nc3n(c(=O)c12)CCCCC3 the results were miR-21 reporter -10%.
Screening O=S(=O)(c1ccc(Cl)cc1)c1nnn2c1nc(NCc1ccc3c(c1)OCO3)c1sccc12 returned miR-21 reporter -8%.
For CCOc1ccc(Cn2c(CNS(=O)(=O)c3cccs3)nc3cccnc32)cc1 the results were miR-21 reporter -1%.
For COC(=O)c1nnn(-c2cccc(C)c2)c1N the results were miR-21 reporter -9%.
Screening CSc1ccc(CCNC(=O)c2cc3c(-c4ccccc4F)nn(C)c3s2)cc1 returned miR-21 reporter 9%.
Screening CNC(=O)c1c(NC(=O)/C=C/c2ccccc2Cl)sc2c1CCC2 returned miR-21 reporter -13%.
Fc1ccc(-c2cn3cc(Cc4ccc(Cl)cc4)sc3n2)cc1 was read as miR-21 reporter -27%.
`CCOc1ccccc1NC(=O)N1CC(CC)Oc2ccccc21` (stereo unspecified) gave miR-21 reporter 3%.
For CCOc1ccc(C2C(=O)N(C3CCCCC3)CC(=O)N2C2CCCC2)cc1OC (stereo unspecified) the results were miR-21 reporter -3%.
`CCOCc1cc(CN2CCN(c3ccccc3OC)CC2)c(O)c2ncccc12` gave miR-21 reporter -6%.
Screening CCCCCn1c(-c2cccc(C)c2)nc2ccccc21 returned miR-21 reporter inconclusive.
`Cc1oc(-c2ccc(C(=O)Nc3ccccc3F)cc2)nc1COc1ccccc1` gave miR-21 reporter -7%.
Screening COc1ccc(CNC(=O)CCc2c(C)nn(-c3ccc(N4CCCC4)nn3)c2C)c(OC)c1 returned miR-21 reporter -2%.
Screening O=C(CSc1nncn2c1cc1sccc12)Nc1ccc(Br)cc1F returned miR-21 reporter -3%.
For COc1ccc(NC(=O)C(=O)NCC(c2cccnc2)N2CCc3ccccc32)cc1OC (stereo unspecified) the results were miR-21 reporter -9%.
For CCOC(=O)c1ccccc1NC(=O)c1cnc(N2CCOCC2)c2ccccc12 the results were miR-21 reporter -3%.
`CCN(C(=O)c1cc2c(Cl)nc3ccccc3c2s1)c1cccc(Cl)c1` gave miR-21 reporter 1%.
For CCOC(=O)C1CCN(C(=O)Cn2c(=O)cc(C)c3c(C)nn(C)c32)CC1 the results were miR-21 reporter 14%.
Cc1ccc(Cn2cc(/C=C(/C#N)C(=O)Nc3cccc(Cl)c3)c3ccccc32)cc1 was read as miR-21 reporter 0%.
Screening CCOc1ccc(CCNC(=O)CCSCc2ccc(Cl)cc2)cc1OCC returned miR-21 reporter 4%.
`Cc1ccc(NC(=O)Nc2nnc(N3CCCC3)s2)cc1` gave miR-21 reporter 24%.
Screening COc1cc(CNc2ccc3[nH]c(=O)[nH]c3c2)cc(Cl)c1OCc1ccccc1F returned miR-21 reporter 10%.
Screening O=C(Cn1c(=O)nc(-c2ccccc2)c2ccccc21)Nc1cccc(C(F)(F)F)c1 returned miR-21 reporter -6%.
`COc1ccc(N2CCN(c3oc(-c4ccccc4C)nc3S(=O)(=O)c3ccccc3)CC2)cc1` gave miR-21 reporter 2%.
For O=C(Cn1c(=O)n(Cc2ccc3c(c2)OCO3)c(=O)c2oc3ccccc3c21)Nc1ccccc1F the results were miR-21 reporter -4%.
Screening CCN(CC)CCCNc1cc(-c2ccccc2)nc(C)n1 returned miR-21 reporter -2%.
For CCOC(=O)c1ccccc1NS(=O)(=O)c1c(-c2ccc(C)cc2)csc1C(=O)OC the results were miR-21 reporter 29%.
Screening O=C(Cn1nnnc1-c1ccccc1F)Nc1ccc(F)c(F)c1 returned miR-21 reporter -6%.
Cc1ccc(Cl)cc1NC(=O)CN1C=NS(=O)(=O)c2ccccc21 was read as miR-21 reporter 3%.
For CC1CCCCN1CC(=O)N1CCCc2c1c(=O)oc1ccc(OCc3ccccc3)cc21 (stereo unspecified) the results were miR-21 reporter 13%.
For C#CCn1c(/C=C/c2ccc(Cl)cc2)nc2ccccc21 the results were miR-21 reporter 16%.
`Cc1nc2ccc(S(=O)(=O)CCC(=O)Nc3ccc(C(C)C)cc3)cc2s1` gave miR-21 reporter -8%.
For Cc1ccccc1Cc1c(C)nc2nc(SCC(=O)NCCc3ccc(Cl)cc3)nn2c1C the results were miR-21 reporter 11%.
`CC1CCC(NC(=O)CCc2cn(Cc3ccccc3Cl)c3ccccc23)CC1` (stereo unspecified) gave miR-21 reporter -2%.
Screening CCCOc1ccccc1C(=O)Nc1ccc(-c2nc3ccc(C)cc3s2)cc1 returned miR-21 reporter -51%.
Screening CCc1ccc2occ(CC(=O)N(Cc3ccc(N(C)C)cc3)C3CCS(=O)(=O)C3)c2c1 (stereo unspecified) returned miR-21 reporter -4%.
Cc1ccc(NCc2cccn2-c2nnc(N3CCC(C(=O)NCCc4ccc(Cl)cc4)CC3)s2)cc1 was read as miR-21 reporter 25%.
`CCOc1ccccc1C(=O)N(Cc1ccccc1F)C1CCS(=O)(=O)C1` (stereo unspecified) gave miR-21 reporter -1%.
`Cc1cn2c(=O)cc(COc3cc(C)c(Cl)c(C)c3)nc2s1` gave miR-21 reporter 0%.
`Cc1cccc(NC(=O)c2ccc(Cn3nc(N4CCN(c5ccccc5)CC4)ccc3=O)o2)c1C` gave miR-21 reporter 20%.
Screening CCCNC(=O)CCC(=O)N1Cc2cccc(OC)c2Oc2ncccc21 returned miR-21 reporter 2%.
Screening FC(F)(F)c1cccc(N2CCN(c3ncnc4c3nc3n4CCCC3)CC2)c1 returned miR-21 reporter 20%.
For O=S(=O)(NCc1cccc(Br)c1)c1ccc(-c2cc(C(F)(F)F)on2)s1 the results were miR-21 reporter 5%.
Screening COc1cc(-c2nnc(SCCOc3ccc(C)c(Cl)c3)o2)cc(OC)c1OC returned miR-21 reporter 2%.
`Cc1ccc(CNC(=O)c2cn(C)c3ccc(S(=O)(=O)N(C)C4CCCCC4)cc3c2=O)cc1` gave miR-21 reporter -2%.
For Cc1ccccc1-c1noc(CSc2nnc(Cc3ccccc3)n2-c2ccc(F)cc2)n1 the results were miR-21 reporter 2%.
Cc1ccc(CN2C(=O)c3ccccc3Sc3ccc(C(=O)OCc4ccco4)cc32)cc1 was read as miR-21 reporter 5%.
CCOC(=O)c1cccc(NC(=O)Cn2ncc3c4ccccc4n(Cc4ccccc4)c3c2=O)c1 was read as miR-21 reporter 0%.
`COc1ccc(N2CCN(C(=O)c3cnc(N4CCCC4)nc3C)CC2)cc1` gave miR-21 reporter -5%.
Screening COc1cccc(C(=O)Nc2ccccc2SCc2cc(=O)c3cccc(C)c3[nH]2)c1 returned miR-21 reporter -6%.
CCOc1ccc(OCC)c(NS(=O)(=O)c2c(C(=O)N3CCCCCC3)c(C)n(C)c2C)c1 was read as miR-21 reporter 1%.
CNC(=O)CSc1nnc(NC(=O)Nc2ccccc2)s1 was read as miR-21 reporter -7%.
`COc1cc(/C=C/c2nc(C#N)c(NCCc3ccccc3)o2)cc(OC)c1OC` gave miR-21 reporter 20%.
Screening O=C(CN1C(=O)COc2ccc(S(=O)(=O)NC3CCCC3)cc21)NCc1ccccc1Cl returned miR-21 reporter -1%.
`Cc1csc2nc(-c3cccc(NC(=O)c4ccccc4Cl)c3)cn12` gave miR-21 reporter -8%.
